Assay outcomes (PubChem)
AF4-AF9 inh: inhibitors of human MLL-AF4/AF9 interaction | P42568 | AlphaScreen, biotin-AF4 peptide binding to FLAG-AF9 | inhibition, % at 10 µM | 350,000 tested, 0.47% active | AID 651704;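 active means every replicate reaching a set inhibition limit, whatever the replicate mean, cut at about 25% in these data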;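 further: 0% = plate neutral control median and 100% = total signal loss; the record names both 10 and 1 µM as test concentration; the first replicate is given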
Target sequence (P42568 whole entry, looked up): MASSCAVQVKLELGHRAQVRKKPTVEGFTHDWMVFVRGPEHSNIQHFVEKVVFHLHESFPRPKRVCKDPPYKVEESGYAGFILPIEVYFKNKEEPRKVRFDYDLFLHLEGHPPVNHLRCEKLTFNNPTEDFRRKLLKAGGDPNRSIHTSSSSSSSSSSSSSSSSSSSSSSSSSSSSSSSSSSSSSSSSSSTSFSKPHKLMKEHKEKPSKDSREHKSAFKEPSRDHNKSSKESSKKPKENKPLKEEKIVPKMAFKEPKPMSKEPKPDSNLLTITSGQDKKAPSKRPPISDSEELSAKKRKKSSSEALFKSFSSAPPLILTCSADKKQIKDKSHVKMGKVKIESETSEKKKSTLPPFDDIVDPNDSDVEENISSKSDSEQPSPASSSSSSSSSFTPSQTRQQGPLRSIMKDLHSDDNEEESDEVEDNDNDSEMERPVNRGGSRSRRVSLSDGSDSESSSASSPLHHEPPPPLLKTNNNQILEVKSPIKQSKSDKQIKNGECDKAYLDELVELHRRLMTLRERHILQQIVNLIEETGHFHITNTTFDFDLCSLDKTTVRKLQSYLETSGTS
FGF22 binding: FGF22 (human) thermal shift binding; recombinant FGF22 thermal shift, SYPRO orange fluorescence; percent of sucrose octasulfate shift, DMSO zero; calls only at 9.99 µM; 340,000 tested, 1.5% active; AID 651658;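 active means melting point raised past a set limit in the mean and every replicate; three in four hits are not shown here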
Target sequence (Q9HCT0 whole entry, looked up): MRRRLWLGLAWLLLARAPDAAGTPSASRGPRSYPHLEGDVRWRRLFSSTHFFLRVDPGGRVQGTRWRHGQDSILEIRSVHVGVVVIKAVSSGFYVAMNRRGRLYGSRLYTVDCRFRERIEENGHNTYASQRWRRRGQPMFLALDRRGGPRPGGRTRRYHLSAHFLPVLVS
* hit, by the source's call; i = inactive; & = joins results of further samples. The list is partial. The share of hits here may be higher or lower than overall.

Values run as follows: FGF22 binding, AF4-AF9 inh
- Cc1ccc(S(=O)(=O)N(C)C[C@H]2OCCCC[C@H](C)Oc3ccc(NC(=O)Nc4cccc5ccccc45)cc3C(=O)N([C@H](C)CO)C[C@H]2C)cc1
→ i, -3.0
- COc1cccc(NC(=O)N[C@@H]2CC[C@H](CC(=O)N3CCOCC3)O[C@H]2CO)c1
→ i, 0.1
- CN(C)C(=O)C[C@@H]1C[C@H]2c3cc(NC(=O)Nc4ccc(F)cc4)ccc3O[C@H]2[C@@H](CO)O1
→ i, 0.2
- CCCNC(=O)Nc1ccc2c(c1)C(=O)N(C)C[C@H](OC)[C@@H](C)CN[C@@H](C)CO2
→ i, -2.5
- O=C(C[C@H]1CC[C@H](NC(=O)Nc2ccc3c(c2)OCO3)[C@@H](CO)O1)NCc1ccccc1
→ i, -2.9
- CC(C)NC(=O)Nc1ccc2c(c1)CC(=O)N([C@@H](C)CO)C[C@H](C)[C@H](CN(C)C(=O)NC(C)C)O2
→ i, -2.4
- CCCNC(=O)N(C)C[C@H]1Oc2ncc(C3=CCCC3)cc2C(=O)N([C@H](C)CO)C[C@@H]1C
→ i, -1.9
- Cc1noc(C)c1S(=O)(=O)Nc1ccc2c(c1)C(=O)N([C@H](C)CO)C[C@H](C)[C@@H](CN(C)CC1CCCCC1)O2
→ i, 1.3
- C[C@H]1CN([C@@H](C)CO)C(=O)c2cc(NC(=O)c3ccncc3)ccc2O[C@H]1CN(C)Cc1ccncc1
→ i, -4.2
- C[C@@H]1CN([C@H](C)CO)C(=O)c2cc(NC(=O)C3CCCCC3)ccc2O[C@@H](C)CCCCO[C@@H]1CN(C)C(=O)NC1CCCCC1
→ i, 1.1
- O=C(C[C@@H]1C=C[C@H](NC(=O)C2CCOCC2)[C@H](CO)O1)Nc1ccc(-c2ccccc2)cc1
→ i, -0.8
- C[C@H]1CN([C@@H](C)CO)C(=O)c2cccc(NC(=O)c3cnccn3)c2O[C@@H]1CN(C)C(=O)Nc1cccc2ccccc12
→ i, -1.6
- CO[C@H](CN(C)C(=O)C1CC1)[C@H](C)CN(C(=O)Nc1ccc(C(F)(F)F)cc1)[C@H](C)CO
→ i, -1.7
- CCCC(=O)N1CCC2(CC1)CN(C(=O)C1CCCC1)[C@H](CO)c1[nH]c3cc(OC)ccc3c12
→ i, -0.5
- C[C@@H]1CN([C@@H](C)CO)C(=O)CCCn2cc(nn2)CO[C@H]1CN(C)Cc1cccc(C(F)(F)F)c1
→ i, 0.4

An excerpt from above in order of formula weight, high to low.
Values run as follows: FGF22 binding, AF4-AF9 inh
- Cc1ccc(S(=O)(=O)N(C)C[C@H]2OCCCC[C@H](C)Oc3ccc(NC(=O)Nc4cccc5ccccc45)cc3C(=O)N([C@H](C)CO)C[C@H]2C)cc1
→ i, -3.0
- C[C@H]1CN([C@@H](C)CO)C(=O)c2cc(NC(=O)c3ccncc3)ccc2O[C@H]1CN(C)Cc1ccncc1
→ i, -4.2
- CC(C)NC(=O)Nc1ccc2c(c1)CC(=O)N([C@@H](C)CO)C[C@H](C)[C@H](CN(C)C(=O)NC(C)C)O2
→ i, -2.4
- O=C(C[C@@H]1C=C[C@H](NC(=O)C2CCOCC2)[C@H](CO)O1)Nc1ccc(-c2ccccc2)cc1
→ i, -0.8
- CCCNC(=O)N(C)C[C@H]1Oc2ncc(C3=CCCC3)cc2C(=O)N([C@H](C)CO)C[C@@H]1C
→ i, -1.9
- CN(C)C(=O)C[C@@H]1C[C@H]2c3cc(NC(=O)Nc4ccc(F)cc4)ccc3O[C@H]2[C@@H](CO)O1
→ i, 0.2
- COc1cccc(NC(=O)N[C@@H]2CC[C@H](CC(=O)N3CCOCC3)O[C@H]2CO)c1
→ i, 0.1

Remaining list, next part
Values run as follows: FGF22 binding, AF4-AF9 inh
- O=C(C[C@H]1C=C[C@@H](NC(=O)C2CCOCC2)[C@H](CO)O1)NCC1CCCCC1
→ i, -2.7
- CO[C@H](CN(C)S(=O)(=O)c1ccc(Cl)cc1)[C@H](C)CN([C@H](C)CO)S(=O)(=O)c1cccc(Cl)c1
→ i, -2.4
- COc1ccc(CN(C)C[C@@H]2OCCCC[C@@H](C)Oc3ccc(NC(=O)CCCN(C)C)cc3C(=O)N([C@@H](C)CO)C[C@H]2C)cc1
→ i, 0.3
- O=C(Nc1ccccc1F)N[C@@H]1C=C[C@@H](CC(=O)N2CCCCC2)O[C@@H]1CO
→ i, -1.5
- Cc1noc(C)c1NC(=O)Nc1ccc2c(c1)CC(=O)N([C@H](C)CO)C[C@H](C)[C@@H](CN(C)Cc1ccc(C(=O)O)cc1)O2
→ i, -3.5
- C[C@H]1CN([C@@H](C)CO)S(=O)(=O)c2ccc(C3=CCCC3)cc2O[C@H]1CN(C)CC1CC1
→ i, 7.1
- Cc1noc(C)c1NC(=O)Nc1ccc2c(c1)C(=O)N([C@H](C)CO)C[C@@H](C)[C@H](CN(C)Cc1ccc(C(=O)O)cc1)O2
→ i, -1.6
- COc1ccc(CN2C[C@@H](O)COC[C@@H]3O[C@H](CC(=O)N(C)C)CC[C@H]32)cc1
→ i, 0.4
- CC(C)NC(=O)N(C)C[C@H]1Oc2ncc(-c3cccc(C#N)c3)cc2C(=O)N([C@H](C)CO)C[C@@H]1C
→ i, -3.7
- CC(C)NC(=O)Nc1ccc2c(c1)C(=O)N([C@H](C)CO)C[C@@H](C)[C@H](CN(C)C(=O)Nc1ccccc1)OCCCC[C@@H](C)O2
→ i, -1.6
- COc1ccc2c3c(n(C)c2c1)[C@@H](CO)N(Cc1ccccc1F)CC31CN(C(=O)C2CCOCC2)C1
→ i, -0.3
- Cc1ccc(S(=O)(=O)Nc2ccc3c(c2)C(=O)N([C@@H](C)CO)C[C@@H](C)[C@@H](CN(C)S(C)(=O)=O)O3)cc1
→ i, -4.1
- CC(C)C#Cc1ccc([C@@H]2[C@@H](CO)N3CCCCN(C(=O)c4ccc(F)cc4)C[C@H]23)cc1
→ i, 6.3
- COc1ccc(CN(C)C[C@@H]2Oc3ccc(NC(=O)Cc4cn(C)c5ccccc45)cc3C(=O)N([C@@H](C)CO)C[C@H]2C)cc1
→ i, 16
- COC(=O)C[C@H]1C[C@@H]2c3cc(NC(=O)c4ccc5c(c4)OCO5)ccc3O[C@@H]2[C@H](CO)O1
→ i, 2.3
- NCC[C@H]1CC[C@H](NS(=O)(=O)c2ccc(Cl)cc2)[C@@H](CO)O1
→ i, 3.0
- O=C(C[C@@H]1CC[C@H](NC(=O)Nc2ccc(C(F)(F)F)cc2)[C@@H](CO)O1)NCc1ccccn1
→ i, -0.8
- C[C@H]1CCCCO[C@H](CN(C)S(=O)(=O)c2ccc(F)cc2)[C@@H](C)CN([C@@H](C)CO)C(=O)c2cc(NC(=O)NC3CCCCC3)ccc2O1
→ i, -4.2
- Cc1ccc(S(=O)(=O)Nc2cccc3c2O[C@@H](CN(C)Cc2ccc(-c4ccccc4)cc2)[C@@H](C)CN([C@@H](C)CO)C3=O)cc1
→ i, 0.5
- C[C@@H]1CN([C@@H](C)CO)C(=O)c2cc(NC(=O)NC3CCCCC3)ccc2O[C@@H]1CN(C)S(=O)(=O)c1cn(C)cn1
→ i, -1.8
- COc1ccc(NC(=O)N[C@H]2CC[C@@H](CCNS(=O)(=O)c3ccccc3F)O[C@H]2CO)cc1
→ i, 3.5
- O=C(C1CCC1)N1C[C@@H]2[C@H](c3ccccc31)[C@H](CO)N2C(=O)c1ccccc1F
→ i, -0.7
- CCCNC(=O)N(C)C[C@H]1Oc2cc(-c3ccccc3)ccc2S(=O)(=O)N([C@H](C)CO)C[C@@H]1C
→ i, 1.1
- COc1ccc2c3c([nH]c2c1)[C@@H](CO)N(C(=O)NC(C)C)CC31CN(C(=O)NC(C)C)C1
→ i, -1.2
- COc1cccc(S(=O)(=O)N[C@@H]2C=C[C@@H](CC(=O)NCc3ccc(Cl)cc3)O[C@@H]2CO)c1
→ i, -0.5
- C#CCN([C@H](/C=C/C1CC1)[C@@H](O)Cc1ccccc1)[C@@H]1C(=O)N2[C@@H]1SC(C)(C)[C@@H]2C(=O)OC
→ i, -5.1&-3.0
- C[C@@H]1CN([C@@H](C)CO)C(=O)c2cccc(NC(=O)CCCCCC(=O)Nc3ccccc3N)c2O[C@H]1CN(C)CC1CC1
→ i, -2.1
- O=C(C[C@@H]1C[C@H]2c3cc(NC(=O)NC4CCCC4)ccc3O[C@H]2[C@@H](CO)O1)NCCc1ccccc1
→ i, -1.4
- O=C(C(=O)N1CCC(CNC(=O)c2cccnc2Cl)CC1)c1cc2ccccc2o1
→ i, -0.6
- O=C(Nc1cccc(F)c1)N1CCCCN2[C@H](C1)[C@@H](c1ccc(C#Cc3ccccc3)cc1)[C@@H]2CO
→ i, -3.6
- CC(C)(C)S(=O)N1Cc2cc(C(=O)NCc3ccc4c(c3)OCO4)nc(-c3cccc(-c4cc5ccccc5o4)c3)c2[C@H]1CCO (some centres not stated)
→ i, -0.3
- CC(=O)N(C)C[C@H]1Oc2ncc(C#Cc3ccncc3)cc2C(=O)N([C@H](C)CO)C[C@@H]1C
→ i, -12
- COc1ccc(S(=O)(=O)Nc2cccc3c2O[C@H](CN(C)S(C)(=O)=O)[C@H](C)CN([C@H](C)CO)C3=O)cc1
→ i, 3.0
- O=C(Nc1ccccc1F)N1CCCCN2[C@H](C1)[C@H](c1ccc(C#Cc3cccnc3)cc1)[C@@H]2CO
→ i, -5.0
- CCC(=O)Nc1ccc2c(c1)OC[C@@H](C)N(C(=O)c1ccc(F)cc1)C[C@H](C)[C@H](OC)CN(C)C2=O
→ i, -1.5
- COCc1cn(CC[C@H]2CC[C@@H](NC(=O)Nc3ccc(F)cc3)[C@H](CO)O2)nn1
→ i, -0.9
- C[C@H](CO)N1C[C@H](C)[C@H](CN(C)Cc2ccc3c(c2)OCCN3C)OCc2ccccc2-c2c(n(C)c3ccccc23)C1=O
→ i, 18
- C[C@H](CO)N1C[C@H](C)[C@H](CN(C)S(=O)(=O)c2cn(C)cn2)Oc2ccc(NS(C)(=O)=O)cc2C1=O
→ i, -2.3
- Cc1noc(C)c1S(=O)(=O)N(C)C[C@@H]1Oc2ccc(NS(C)(=O)=O)cc2CC(=O)N([C@@H](C)CO)C[C@H]1C
→ i, 0.2
- Cc1ccc(S(=O)(=O)N(C)C[C@H]2OCCCC[C@H](C)Oc3ccc(NC(=O)NC4CCCCC4)cc3C(=O)N([C@@H](C)CO)C[C@H]2C)cc1
→ i, -5.0
- COc1ccc(S(=O)(=O)N2C[C@H](O)COC[C@H]3O[C@H](CC(=O)NCc4ccc(Cl)c(Cl)c4)CC[C@@H]32)cc1
→ i, 0.9
- C[C@H](CO)N1C[C@H](C)[C@H](CN(C)S(=O)(=O)c2cn(C)cn2)Oc2ncc(-c3cccc(F)c3)cc2C1=O
→ i, -1.1
- COc1ccc(S(=O)(=O)N(C)C[C@@H]2Oc3cc(C4=CCCC4)ccc3S(=O)(=O)N([C@@H](C)CO)C[C@H]2C)cc1
→ i, 1.1
- C/C=C/c1ccc([C@@H]2[C@H](CO)N(C(=O)C3CCOCC3)C23CN(C(=O)NC(C)C)C3)cc1
→ i, 1.0
- CCC(=O)N(C)C[C@@H]1Oc2cc(C#C[C@@H](C)O)ccc2S(=O)(=O)N([C@H](C)CO)C[C@@H]1C
→ i, -0.4
- Cc1ccc(S(=O)(=O)N(C)C[C@@H]2Oc3c(NS(C)(=O)=O)cccc3C(=O)N([C@H](C)CO)C[C@H]2C)cc1
→ i, 1.2
- CN(C)C(=O)c1cccc(-c2ccc([C@H]3[C@H](CO)N4CCCCN(CCC(F)(F)F)C[C@@H]34)cc2)c1
→ i, 2.3
- COc1ccc2c3c(n(C)c2c1)[C@@H](CO)N(C(=O)Cc1ccccc1)CC31CCN(C(=O)Cc2ccccc2)CC1
→ i, 1.2
- C[C@H]1CN([C@@H](C)CO)C(=O)Cc2cc(NC(=O)CCN3CCOCC3)ccc2O[C@@H]1CN(C)C(=O)Nc1ccc(F)cc1
→ i, -2.9
- Cc1noc(C)c1NC(=O)Nc1ccc2c(c1)C(=O)N([C@@H](C)CO)C[C@@H](C)[C@H](CN(C)S(=O)(=O)c1cccs1)OCCCC[C@H](C)O2
→ i, -1.6
- C[C@H](CO)N1C[C@H](C)[C@H](CN(C)Cc2ccccn2)Oc2ncc(-c3ccccc3)cc2C1=O
→ i, -16
- C[C@H](CO)N1C[C@H](C)[C@@H](CN(C)S(=O)(=O)c2ccccc2)Oc2ccc(NC(=O)Cn3cnnn3)cc2CC1=O
→ i, -1.9
- COc1ccc(NC(=O)Nc2ccc3c(c2)C(=O)N([C@H](C)CO)C[C@H](C)[C@H](CN(C)C(=O)Nc2ccccc2)O3)cc1
→ i, -1.1
- Cc1noc(C)c1NC(=O)N[C@@H]1CC[C@H](CC(=O)N2CCN(C)CC2)O[C@H]1CO
→ i, -4.7
- COc1ccc(NC(=O)Nc2ccc3c(c2)CC(=O)N([C@@H](C)CO)C[C@H](C)[C@H](CN(C)S(=O)(=O)c2ccc(Cl)cc2)O3)cc1
→ i, 2.5
- COc1ccc(NC(=O)N(C)C[C@@H]2Oc3cc(-c4ccc(C)cc4)ccc3S(=O)(=O)N([C@H](C)CO)C[C@@H]2C)cc1
→ i, 2.1
- CC(=O)N(C)C[C@H]1Oc2cc(C#CCN(C)C)ccc2S(=O)(=O)N([C@H](C)CO)C[C@@H]1C
→ i, -4.1
- CCC(=O)Nc1ccc2c(c1)C(=O)N(C)C[C@@H](OC)[C@H](C)CN(C(=O)c1ccncc1)[C@@H](C)CO2
→ i, 0.4
- C[C@@H]1CN([C@@H](C)CO)C(=O)c2cccc(NC(=O)c3ccc(-c4nccs4)cc3)c2O[C@H]1CN(C)C(=O)Nc1ccccc1
→ i, -2.9
- CNC[C@H]1Oc2c(NC(=O)c3ccncc3)cccc2C(=O)N([C@H](C)CO)C[C@H]1C
→ i, -22
- Cc1ccc(S(=O)(=O)Nc2cccc3c2O[C@H](CN(C)Cc2ccncc2)[C@@H](C)CN([C@@H](C)CO)C3=O)cc1
→ i, -0.2
- COc1ccc(NC(=O)N[C@@H]2CC[C@H](CCNC(=O)c3cc(Cl)cc(Cl)c3)O[C@@H]2CO)cc1
→ i, 3.9
